Biofilm kill mix = mixture kills Candida albicans biofilm cells | C. albicans biofilm persisters + clotrimazole, fluorescence viability; primary screen in compound mixtures of four per well | inhibition, % at 7.6 µM | 120,000 compounds, 0.02% hits | AID 1242;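 active = inhibition above 30.3% in the primary screen of four-compound pools, then above 30% when the compound was retested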;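 note: compounds exposed to preformed 24 h biofilms for 48 h; the number belongs to the whole pool; some results filed as inactive read as strong as hits; inactives centre near 12; 0% = biofilm with clotrimazole alone and 100% = kill control; retested singly at about 60 µM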
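Test system: C. albicans biofilms. Buffer or medium: RPMI/MOPS medium, pH 7.0. Timing: 48 h compound exposure at 37 °C. Technique: Alamar Blue fluorescence. Evaluation: percent inhibition of biofilm viability.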
* hit, by the source's call. An excerpt (hit frequency here may not be typical).

No.	SMILES	Biofilm kill mix
1	Cc1cccc(C(=O)Nc2ccc(N3CCN(S(C)(=O)=O)CC3)cc2)c1	0
2	O=c1c2ccccc2n2c(-c3ccc(F)cc3)nnc2n1Cc1ccccc1	14
3	O=C(N/N=C\c1cc(Br)c(Br)o1)C1COc2ccccc2O1 (configuration not stated)	18
4	COc1ccc2cc(-c3cc(C(=O)OCC(=O)Nc4c(C)n(C)n(-c5ccccc5)c4=O)c4ccccc4n3)ccc2c1	11
5	C[C@@H]1CCC[C@H](C)N1Cc1nc(Cc2ccccc2Cl)no1	-3
6	O=C(COC(=O)c1cc(-c2cccs2)nn1-c1ccccc1)Nc1cccc([N+](=O)[O-])c1	12
7	C/C(=N\N=c1/scc(C)n1Cc1ccco1)c1cccc([N+](=O)[O-])c1	24
8	O=C(Nc1ccccc1)Nc1ccc2ccccc2c1	22
9	COCc1c(C(=O)N/N=C/c2cccc3ccccc23)nnn1-c1nonc1N	10
10	CSc1ccc(NC(=O)N2CC=C(n3c(=O)[nH]c4ccccc43)CC2)cc1	0
11	O=C(O)CC(NC(=O)C12CC3CC(CC(C3)C1)C2)c1cc([N+](=O)[O-])ccc1Cl (configuration not stated)	14
12	Cc1cc([N+](=O)[O-])nn1CC(=O)N1c2ccccc2CC1C (configuration not stated)	10
13	Cc1ccc(N2C(=O)/C(=C\c3ccc(C(C)C)cc3)N=C2SC2CCOC2=O)cc1 (configuration not stated)	21
14	O=c1c2ccccc2nc(/C=C/c2ccccc2)n1CCc1ccccc1	10
15	COc1c(C(=O)Nc2ccc(Cc3ccncc3)cc2)ccc2ccccc12	21
16	Cc1[nH]c2ccccc2c1CCN(Cc1cccnc1)C(=S)Nc1ccc(F)cc1	13
17	O=C(Nc1cccc([N+](=O)[O-])c1)C1C2CC/C=C\CCC21 (configuration not stated)	8
18	O=C(CSc1ncnc2c1nnn2-c1ccc(F)cc1)NCc1ccco1	14
19	Cc1c(C(=S)Nc2ccccc2)cnn1-c1ccc([N+](=O)[O-])cc1	19
20	COc1ccc(NC(=O)CCSc2ccc3ccccc3n2)cc1	10
21	COc1ccc([N+](=O)[O-])cc1NC(=O)c1cn(-c2ccc(Cl)cc2)c(=O)c2ccccc12	9
22	COCCNC(=O)/C(C#N)=C/c1nc(N(C)C)n(-c2ccc(F)cc2)c1Cl	12
23	CC(C)/C(=N/Nc1ccccc1[N+](=O)[O-])c1ccccc1	22
24	CC(=O)Nc1ccc(NC(=O)CSc2ccccn2)cc1	19

Six entries out of the list, sorted by length of the SMILES, ascending:
No.	SMILES	Biofilm kill mix
24	CC(=O)Nc1ccc(NC(=O)CSc2ccccn2)cc1	19
20	COc1ccc(NC(=O)CCSc2ccc3ccccc3n2)cc1	10
23	CC(C)/C(=N/Nc1ccccc1[N+](=O)[O-])c1ccccc1	22
16	Cc1[nH]c2ccccc2c1CCN(Cc1cccnc1)C(=S)Nc1ccc(F)cc1	13
22	COCCNC(=O)/C(C#N)=C/c1nc(N(C)C)n(-c2ccc(F)cc2)c1Cl	12
21	COc1ccc([N+](=O)[O-])cc1NC(=O)c1cn(-c2ccc(Cl)cc2)c(=O)c2ccccc12	9

Next section.
No.	SMILES	Biofilm kill mix
25	CCOCCCNC(=O)/C(C#N)=C/c1ccc(-c2ccc(S(=O)(=O)N3CCOCC3)cc2)o1	11
26	CCOC(=O)c1c(O)c2ccccc2n(CC)c1=O	3
27	COc1ccc(CNc2nc3nc(C)c(Cl)c(C)n3n2)cc1	14
28	COc1cccc(Oc2ccc(C(F)(F)F)cc2N)c1	22
29	C=C(C)c1cccc(C(C)(C)NC(=O)Nc2ccccc2OCC)c1	11
30	COc1ccccc1/C=C\C=N\n1c(-c2ccc(Cl)cc2Cl)n[nH]c1=S	16
31	CCOc1nc2ccccc2cc1/C=C/C(=O)O	12
32	COc1ccc(CNC(=O)CCS(=O)(=O)Cc2ccc(C)cc2)c(OC)c1	3
33	Cc1nccc(-c2cccc(NC(=O)c3ccccc3Cl)c2)n1	18
34	Cc1ccc(NC(=O)COC(=O)c2cccnc2)cc1	20
35	CC(=O)OCCOCn1cnn2c(=O)c(Br)c(C)nc12	18
36	COc1ccc(C2C(C(=O)N3CCC(C)CC3)c3ccccc3C(=O)N2C)cc1 (configuration not stated)	8
37	COc1cccc(/C=N/NC(=O)CN2CC(c3ccccc3)CC2=O)c1OC (configuration not stated)	10
38	CCn1c(C)nc2cc(C(=O)NNC(=O)CCC3CCCCC3)ccc21	16
39	COc1ccc(-c2c(C(C)=O)c(C)n(C)c2C)cc1	5
40	COC(=O)c1ccc2c(c1)NC1=C(C(=O)CC(C)(C)C1)C(c1ccncc1)N2 (configuration not stated)	8
41	COc1ccc(Cc2noc(CN3CCCC(C(=O)c4cccs4)C3)n2)cc1OC (configuration not stated)	13
42	CCOc1cc(N2CCOCC2)c(OCC)cc1NC(=O)Cn1cnc2c(=O)n(C)c(=O)n(C)c21	17
43	CC1SCC(=O)N(CC(=O)NCCc2ccccc2)C1=O (configuration not stated)	16
44	Cc1ccc(-c2csc(NC(=O)C3CC(=O)N(Cc4ccco4)C3)n2)cc1 (configuration not stated)	15
45	CCC(=O)OCC(=O)Nc1ccc([N+](=O)[O-])cc1OC	0
46	O=C(Nc1cccc(-c2nc3ccccc3o2)c1)c1cccnc1	2
47	C=CCNC(=O)c1cc(Cl)ccc1[N+](=O)[O-]	15
48	CCN(CC)CCC#CC(O)(c1ccccc1)C1CCCCC1 (configuration not stated)	9
49	O=C(COC(=O)c1ccc[n+]([O-])c1)Nc1c(Br)cc([N+](=O)[O-])cc1Br	8
50	O=C(Cc1ccc(-n2c(=O)c3sccc3n(CC(=O)Nc3ccccc3F)c2=O)cc1)NCc1ccco1	8
51	CC(C)C(=O)NC(NC1CCS(=O)(=O)C1)C(Cl)(Cl)Cl (configuration not stated)	13
52	Cc1ccccc1C(=O)NC(=S)Nc1ccc(S(=O)(=O)N2CCOCC2)cc1	18
53	COCCn1c(SCC#N)nnc1-c1ccc(OC)cc1	11
54	CC(C)n1cnc2c(Nc3cccc(Cl)c3)nc(N(CCO)CCCO)nc21	11
55	O=C1C2C3C=CC(CNS(=O)(=O)c4ccccc4)(O3)C2C(=O)N1c1ccc(Cl)cc1 (configuration not stated)	10
56	O=C(N/N=C\c1ccc([N+](=O)[O-])o1)c1cncc(Br)c1	24
57	Cc1ccc(-n2[nH]c(C)c(/C=N/Nc3ccc([N+](=O)[O-])cc3[N+](=O)[O-])c2=O)cc1C	27
58	N#CCCn1c(=O)n(CCC#N)c2ccccc21	16
59	O=C(C1CCN(S(=O)(=O)c2ccccc2[N+](=O)[O-])CC1)N1CCOCC1	10
60	O=C(O)c1cc(-c2ccc(/C=C3\NC(=O)N(c4ccc(Cl)cc4)C3=O)o2)ccc1Cl	6
61	O=c1cc(CSc2nnc(NC3CCCCC3)s2)nc2sccn12	9
62	CCOC(=O)c1ccc(NC(=S)NC(=O)c2nn(CC)cc2Br)cc1	18
63	O=C(COc1cccnc1[N+](=O)[O-])c1c[nH]c2ccccc12	17
64	Cc1ccc2nc(-c3ccc(NS(=O)(=O)c4ccc(F)cc4)cc3)sc2c1	7
65	NS(=O)(=O)c1ccc(NC(=O)c2c(Cl)cccc2Cl)cc1	7
66	Cc1ccc(C)c(NC(=O)CSc2nc3[nH]ncc3c(=O)[nH]2)c1	0
67	C/C(=C\C=C(C#N)C#N)c1cc(C#N)c(N)o1	10
68	CN1CCO/C1=C(\C(Cl)=C(Cl)Cl)[N+](=O)[O-]	8
69	O=C(NCCSc1ccccc1)c1ccc(CN2CCOCC2)cc1	23
70	COC(=O)Cc1c(OC)ccn(CCc2c[nH]c3ccccc23)c1=O	16
71	COc1ccccc1C(=O)NCC(=O)OCC(=O)c1ccc2c(c1)-c1ccccc1C2	9
72	Cc1ccc(C2Nc3ccc4ccccc4c3C3=C2C(=O)CC(C)(C)C3)o1 (configuration not stated)	14

5 entries drawn at random from those above, as already listed:
No.	SMILES	Biofilm kill mix
71	COc1ccccc1C(=O)NCC(=O)OCC(=O)c1ccc2c(c1)-c1ccccc1C2	9
65	NS(=O)(=O)c1ccc(NC(=O)c2c(Cl)cccc2Cl)cc1	7
69	O=C(NCCSc1ccccc1)c1ccc(CN2CCOCC2)cc1	23
67	C/C(=C\C=C(C#N)C#N)c1cc(C#N)c(N)o1	10
66	Cc1ccc(C)c(NC(=O)CSc2nc3[nH]ncc3c(=O)[nH]2)c1	0

Further records.
No.	SMILES	Biofilm kill mix
73	O=C(COc1ccccc1)N(Cc1cccs1)C1CCS(=O)(=O)C1 (configuration not stated)	18
74	CC(/C=N/n1c(-c2ccncc2)n[nH]c1=S)=C\c1ccco1	15
75	CC1=CC(=O)C=C(C)C1=NOC(=O)/C=C\c1ccccc1	14
76	COc1ccc(N(CC(=O)NCCC2=CCCCC2)S(=O)(=O)c2c(C)[nH]c(=O)[nH]c2=O)cc1	25
77	COc1ccc(C2NCCc3c2[nH]c2ccccc32)cc1COc1ccc(F)cc1 (configuration not stated)	19
78	O=C(N/C(=C/c1cccnc1)C(=O)N1CCOCC1)c1ccccc1	17
79	CCN(CC)S(=O)(=O)c1ccc(/C=C/C(=O)OCC#N)cc1	8
80	Cc1sc2nc(C3CC3)nc(SCC(=O)N3CCCc4ccccc43)c2c1C	9
81	Cc1csc(NC(=S)Nc2cccc(Cl)c2)n1	-3
82	O=C(Nc1ncc(Cl)cc1Cl)c1c(F)cccc1Cl	13
83	C#CCOC(=O)/C(=C/C=C/c1ccccc1)NC(=O)c1ccccc1	6
84	COc1cc(Br)c(Br)cc1N	17
85	O=C(CSc1n[nH]c(=O)n1C1CC1)NCc1ccccc1	18
86	Cc1ccc(NC(=O)C(Cc2ccccc2)NC(=O)OCc2ccccc2)cc1C (configuration not stated)	15
87	O=C(c1cnccn1)N1CCN(c2ccccc2F)CC1	19
88	CC(=O)Nc1ccc(CC#N)cc1	16
89	O=C(O)c1csc(Cc2ccccc2)n1	30
90	Cc1ccc2nc(C)c3c(c2c1)N(c1ccccc1)CC3	5
91	Cc1ccc(N=Nc2c(C)[nH]n(C(N)=S)c2=O)cc1C	26
92	CCN1CCCC1CN(Cc1cc2ccc(C)cc2[nH]c1=O)C(=S)Nc1cccc(OC)c1 (configuration not stated)	11
93	O=C(CC1S/C(=N\S(=O)(=O)c2ccc(F)cc2)N(c2ccccc2)C1=O)Nc1ccccc1 (configuration not stated)	9
94	COC(CNC(=O)C(C)n1nc(C)c2ccccc21)OC (configuration not stated)	0
95	COc1ccc(CCN2C(=O)CCC2(C)C(=O)NC2CCCC2)cc1OC (configuration not stated)	5
96	CC(C)NC(=O)Nc1cccc(Cl)c1	15
97	CN(Cc1ccccc1)C(=O)c1cnc2n(c1=O)CCS2	5
98	CC(=O)Nc1ccc(S(=O)(=O)Nc2ccc(Cl)nn2)cc1	4
99	O=C(N/N=C1\C(=O)c2cccc3cccc1c23)c1ccc(O)cc1	6
100	COc1cccc(CSc2ccc(S(=O)(=O)N3CCOCC3)cc2C(=O)NCC2CCCO2)c1OC (configuration not stated)	22
101	Cc1ccc(C2CC(c3cccs3)=NN2S(=O)(=O)c2ccc(C)cc2)cc1 (configuration not stated)	14
102	O=C(CSc1ccc(-c2ccccn2)nn1)c1ccccc1	6
103	COc1ccc(NC(=O)c2ccc(COCC(F)(F)C(F)F)cc2)cc1OC	21
104	C1CC2CN(c3nc4nonc4nc3N3CCSCC3)CCN2C1 (configuration not stated)	-11
105	COc1cc2c(cc1OC)C(SC)=NC(C)(C)C2	13
106	CCOC(=O)n1c(=O)oc2ccc(Cl)cc21	14
107	CC[C@@H](C)C(NC(=O)OC(C)(C)C)c1cn([C@@H](CCC(=O)OC(C)(C)C)C(=O)N2CCN(C(=O)OC(C)(C)C)CC2)nn1 (some centres not stated)	18
108	Nc1ccccc1SC1CC(=O)N(c2ccc(Cl)c(Cl)c2)C1=O (configuration not stated)	17
109	Nc1nnnn1/N=C/c1ccccc1OCc1ccc(Cl)cc1	8
110	Nc1nonc1-n1nnc(C(=O)N/N=C/c2cccc(Cl)c2)c1CSc1ccccc1	24
111	O=C1NC2=C(CCc3ccccc32)C(c2ccccc2)N1 (configuration not stated)	12
112	CCCCn1c(N)c(NCC)c(=O)[nH]c1=O	25
113	COc1cc(Cl)c(C)cc1NC(=O)COC(=O)C(NS(=O)(=O)c1ccc(Cl)cc1)C(C)O (configuration not stated)	5
114	CN(CC(=O)Nc1ccccc1Oc1ccccc1)Cc1ccccc1F	18
115	CCCn1c(=O)c2[nH]cnc2n(-c2ccccc2C)c1=O	19
116	Cc1ccc(-c2nn(-c3ccccc3)cc2C(=O)O)o1	17
117	O=C(NNC1=NCCC1)c1cccc(S(=O)(=O)N2CCCC2)c1	1
118	Cn1c(SCC(=O)N2CCc3ccccc3C2)nnc1-c1ccncc1	9
119	Brc1cc2c(cc1C1Nc3ccccc3C3C=CCC31)OCO2 (configuration not stated)	10
120	C#CCn1c(=NC(=O)c2ccccc2[N+](=O)[O-])sc2cc(S(C)(=O)=O)ccc21	12
121	CCc1c(C)sc(NC(=O)c2ccccc2[N+](=O)[O-])c1C(N)=O	13
122	COc1ccc([N+](=O)[O-])cc1N(CC(O)CN1CCCCC1)S(=O)(=O)c1ccccc1 (configuration not stated)	1
123	Brc1ccccc1-c1csnn1	8
124	Cn1c(-c2c(N)n(-c3ccccc3)c3nc4ccccc4nc23)nc2ccccc21	11
125	N=C1C(c2ccccc2)=C(O)CN1c1cccc(S(=O)(=O)N2CCOCC2)c1	20
126	Cc1c(NC(=O)CSc2ncnc3ccccc23)c(=O)n(-c2ccccc2)n1C	-1
